# Bioassay records as filed in PubChem.
# MT1-MMP reporter = inhibitors of MT1-MMP promoter transcription, cell-based, luciferase reporter, luminescence (AID 618). MT1-MMP promoter luciferase reporter cells, luminescence. calls from a first round at 10 µM; hits with a dose series show EC50 in µM. 0.62% of 87,000 active;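 active = over half of the reporter light lost at 10 µM or EC50 under 50 µM; inactive = the rest and hits that failed the dose series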;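 also: actives suppress MT1-MMP promoter-driven transcription so potencies describe inhibitors; HT1080 fibrosarcoma cells; overnight exposure; toxic or luciferase-blocking compounds were not removed from the actives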
# Hsc70 ATP site = Hsc70 inhibitors, probe displacement, primary screen, biochemical, fluorescence polarization (AID 568); displacement, % at 20 µM; hits with a dose series show IC50 in µM; Hsc70 fluorescence polarization, probe displacement; higher % means a stronger effect; strong numbers were not always called active; 83,000 tested, under 10 active;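 active = displacement above 50% without optical interference and an IC50 on retest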;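 also: ATPase domain with a fluorescein-tagged ATP probe; 0% = vehicle and 100% = excess ADP; read after one hour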
# WNV NS2B-NS3 inh = WNV NS2B-NS3 proteinase inhibition | P06935 | WNV NS2B-NS3 protease, fluorogenic substrate Ex360/Em465; stronger effect = lower value | z-score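 (tested at a level between 10 and 100 µM)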 | 0.18% of 65,000 active;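 active = z-score at -3 or under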;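 also: score is relative to mean and spread of the compound wells of a plate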
# Target sequence (P06935 1371-1501 limits assumed): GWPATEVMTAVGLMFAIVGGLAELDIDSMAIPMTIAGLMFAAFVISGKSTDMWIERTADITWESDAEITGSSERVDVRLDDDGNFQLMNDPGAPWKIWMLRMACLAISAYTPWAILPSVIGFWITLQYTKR
# Target sequence (P06935 1502-1679 limits assumed): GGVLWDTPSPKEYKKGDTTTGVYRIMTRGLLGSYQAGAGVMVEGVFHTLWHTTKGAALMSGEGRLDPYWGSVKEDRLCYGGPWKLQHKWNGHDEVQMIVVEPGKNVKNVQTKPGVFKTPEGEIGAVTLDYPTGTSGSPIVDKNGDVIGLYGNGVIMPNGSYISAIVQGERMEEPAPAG
# Numbers without * were called inactive; i = inactive; . = not tested or not shown.
SMILES,MT1-MMP reporter,Hsc70 ATP site,WNV NS2B-NS3 inh
CCCS(=O)(=O)N1CCC(C(=O)N2CCN(Cc3ccccc3)CC2)CC1,i,6.2%,-0.12
C/C(N)=C(/C#N)C(=O)COC(=O)C1Cc2ccccc2CN1S(C)(=O)=O (stereo unspecified),i,-8.7%,-1.2
O=C(O)CNS(=O)(=O)c1cc(Cl)c(Cl)cc1Cl,i,2.7%,0.2
Cc1cc(NC(=O)c2cc(CC(C)C)on2)no1,i,1.1%,-0.38
Cc1cccc(C)c1NC(=O)CSc1nnc(-c2ccncc2)n1Cc1ccco1,i,-3.2%,2
COc1cccc(C(=O)N2CCN(Cc3ccccc3C(F)(F)F)CC2)c1,i,0.6%,-0.34
CC(C)N=C(NC#N)SCC(=O)NC(C)(C)C,i,0.9%,-0.66
CCOC(=O)C1=C(CNCc2ccc(C)cc2)NC(=O)NC1c1ccc(OC)cc1 (stereo unspecified),i,4.9%,-1.4
CCCCSc1nnc(CCC)n1N,i,-0.6%,-0.31
CCOC(=O)c1c(C)[nH]c(C(=O)CN2C(=O)NC(C)(c3ccc(C)cc3)C2=O)c1C (stereo unspecified),i,-3.7%,0.43

# Looked up one by one from above, 2 records:
SMILES,MT1-MMP reporter,Hsc70 ATP site,WNV NS2B-NS3 inh
CCOC(=O)C1=C(CNCc2ccc(C)cc2)NC(=O)NC1c1ccc(OC)cc1 (stereo unspecified),i,4.9%,-1.4
C/C(N)=C(/C#N)C(=O)COC(=O)C1Cc2ccccc2CN1S(C)(=O)=O (stereo unspecified),i,-8.7%,-1.2

# (list continues)
SMILES,MT1-MMP reporter,Hsc70 ATP site,WNV NS2B-NS3 inh
CC1C(=O)CCC1(C(=O)O)c1ccccc1 (stereo unspecified),i,6.8%,-0.42
O=C(c1cc2c(s1)CCCC2)n1cccn1,i,5.0%,-0.19
COc1ccc(OC2OC3COC(C)(C)OC3C(O)C2NC(C)=O)cc1 (stereo unspecified),i,-1.6%,.
CCn1c(NC)cc(=O)n(C)c1=O,i,0.6%,.
Cc1cc(C(=O)N2CC(C)CC(C)C2)n(-c2ccccc2)n1 (stereo unspecified),i,3.5%,0.15
O=C(CSc1nnc(Nc2ccccc2F)s1)NCc1ccco1,i,-3.7%,-1.4
Cc1cc(C)c(S(=O)(=O)NCCCN2CCOCC2)cc1Br,i,6.1%,-0.51
COc1cc(C(=O)Nc2cccc(-c3nc4cc(C)ccc4o3)c2C)cc(OC)c1OC,i,-8.6%,0.68
CSc1nc(-c2ccccc2)nn1S(=O)(=O)c1ccc(Cl)cc1,i,7.2%,.
Nc1nonc1-c1nc2ccccc2n1CC(=O)O,i,3.2%,.
CC(=O)Nc1ccc(NC(=O)C(C)Oc2ccccc2F)cc1 (stereo unspecified),i,-2.0%,0.19
O=C(O)c1ccc2c(c1)NC(=O)C(N1CCCC1)S2 (stereo unspecified),i,-0.6%,0.54
CC(=O)Nc1nc(S(=O)(=O)c2ccc(C)cc2)c(Cl)s1,i,0.7%,.
COc1cccc(CNC(=O)C2CCCN(S(=O)(=O)c3cccc4nonc34)C2)c1 (stereo unspecified),i,-2.3%,.
CC(=O)Nc1ccc(S(=O)(=O)NCC2CCC(C(=O)NCCCN3CCCC3=O)CC2)cc1 (stereo unspecified),i,2.5%,0.08
O=C(NCCc1ccncc1)Nc1ccc(Cl)cc1,i,-1.2%,-0.31
Cc1nc2ccccc2c2nc(N)nn12,i,8.5%,.
CCOc1ccc2[nH]c(=O)c(CN(CCc3ccccc3)C(=O)c3cnccn3)cc2c1,i,-3.2%,-1.2
Cn1c(=O)c2c(ncn2CC(=O)NC(C)(C)C)n(C)c1=O,i,-4.9%,-0.97
Cc1ccc2nc3c(cc(C(N)=S)c(=N)n3CCCOC(C)C)c(=O)n2c1,i,-8.6%,-0.9
CCNc1nc(NCC)nc(OCCOC(=O)COc2ccc(Cl)cc2Cl)n1,i,5.0%,.
CCCCOn1c(C)c(C(=O)OCC)c2c3nonc3ccc21,i,5.2%,0.92
CC1CCN(Cc2ccc(-c3nn[nH]n3)cc2)CC1,i,-3.0%,0.99
Cc1cc2oc(=O)cc(CN3CCOCC3)c2cc1C,i,2.6%,.
O=C1OC(Nc2nc3ccccc3s2)c2ccccc21 (stereo unspecified),i,2.6%,1.2
Cn1c(NC(=O)c2ccc(Br)o2)cc(=O)n(C)c1=O,i,2.6%,-0.37
COc1nc(NCCc2ccc(OC)c(OC)c2)nc(NC(C)(C)CO)n1,i,1.8%,-1.2
CCn1c(SCC(=O)Nc2nccs2)nnc1-c1ccncc1,i,-0.3%,-0.03
c1ccc2[nH]c(CN3CCOCC3)nc2c1,i,-0.3%,.
COCCOC(=O)C1=C(C)Nc2ncnn2C1c1ccccc1 (stereo unspecified),i,-4.3%,0.85
Cc1oc(-c2ccc(Cl)cc2)nc1CN1CCCC(C(=O)NCc2cccnc2)C1 (stereo unspecified),i,4.6%,2
CS(=O)(=O)NCCSCc1ccco1,i,1.6%,0.42
COc1ccc(N2CCN(CC(=O)Nc3nc4c(s3)CC(C)CC4)CC2)cc1 (stereo unspecified),i,4.3%,-0.31
Cc1nc2sc(C(c3cccs3)N3CCN(c4ccccc4)CC3)c(O)n2n1 (stereo unspecified),i,9.3%,-0.63
CCn1c(=O)c(C(=O)NCCN2CCCCC2)c(O)c2ccccc21,i,4.3%,-0.06
Nc1ccc2oc(-c3ccc4nc[nH]c4c3)nc2c1,4.3µM*,0.5%,.
O=C(COc1ccccc1Cl)NCc1ccncc1,i,0.5%,-1.3
O=C(c1nn(-c2ccccc2)c(=O)c2ccccc12)N1CCN(c2ccccn2)CC1,i,1.5%,.
CS(=O)(=O)NCCCNc1c(Cl)cccc1[N+](=O)[O-],i,3.1%,.
O=C(O)c1ccccc1S(=O)(=O)Cc1ccccc1,i,1.9%,-0.98
Cc1cccc(C)c1NC(=O)CSc1nnnn1C,i,-11%,-0.43
Cc1cc(-c2cc(N)n(-c3ccccc3)n2)c(C)n1C1CCCC1,i,-12%,0.48
O=c1cc(-c2ccccc2)c2c([nH]1)CCCC2,i,6.4%,-0.08
COc1ccc(CCNC(=O)COc2nsnc2N2CCOCC2)cc1OC,i,-7.3%,-1.1
O=C1CSC(c2ccncc2)N1Cc1ccco1 (stereo unspecified),i,0.9%,0.36
COc1ccc(OC)c(N)c1,i,-2.4%,0.38
CN(c1cccc(Cl)c1)S(=O)(=O)c1cccc(C(=O)NC2=NCCS2)c1,i,0.8%,.
CN(C)C(=O)C12CCC(C)(c3nc4ccccc4nc31)C2(C)C (stereo unspecified),i,-5.2%,0.48
O=C(CC1Nc2ccccc2NC1=O)NCCc1ccccc1 (stereo unspecified),i,4.4%,.
CCOc1ccc(Nc2cc(C)nc(N3CCOCC3)n2)cc1,i,-0.7%,-0.39
# The list continues:
SMILES,MT1-MMP reporter,Hsc70 ATP site,WNV NS2B-NS3 inh
Cc1cc(C)c2c(c1)OC(O)(C(F)F)CC2=O (stereo unspecified),i,5.5%,-0.03
COC(=O)C(F)(Sc1c(C)n(C)n(-c2ccccc2)c1=O)C(F)(F)F (stereo unspecified),i,0.9%,-0.84
CN=C1SC(CC(=O)NCCc2ccc(OC)c(OC)c2)C(=O)N1C (stereo unspecified),i,1.8%,2.5
CC(C)(C)c1ccc(C(=O)C=[N+]=[N-])cc1,i,4.8%,-2
CCCCCn1nc(-c2ccccc2)c2nc3ccccc3nc21,i,59%,.
COc1ccc2[nH]c(=O)c(CN(Cc3ccco3)C(c3nnnn3Cc3ccccc3)C(C)C)cc2c1 (stereo unspecified),i,6.5%,.
CCCn1nnnc1SCC(=O)c1ccc2c(c1)OCCO2,i,0.1%,-0.18
COc1ccc2c(c1)CCc1c(C(=O)Nc3ccc(OC)c(OC)c3)noc1-2,i,-6.0%,-0.13
CN(C)CCCN1C(=O)C(=O)/C(=C(/O)c2ccc3c(c2)OCCO3)C1c1ccccn1 (stereo unspecified),i,-3.3%,0.69
COc1cc(C(=O)OCC(=O)N2CCCC2)cc(OC)c1OC,i,0.6%,0.18

# Arranged by SMILES length (falling): some entries from above
SMILES,MT1-MMP reporter,Hsc70 ATP site,WNV NS2B-NS3 inh
CN(C)CCCN1C(=O)C(=O)/C(=C(/O)c2ccc3c(c2)OCCO3)C1c1ccccn1 (stereo unspecified),i,-3.3%,0.69
COc1ccc2c(c1)CCc1c(C(=O)Nc3ccc(OC)c(OC)c3)noc1-2,i,-6.0%,-0.13
CN=C1SC(CC(=O)NCCc2ccc(OC)c(OC)c2)C(=O)N1C (stereo unspecified),i,1.8%,2.5
CCCCCn1nc(-c2ccccc2)c2nc3ccccc3nc21,i,59%,.
CC(C)(C)c1ccc(C(=O)C=[N+]=[N-])cc1,i,4.8%,-2
CCCn1nnnc1SCC(=O)c1ccc2c(c1)OCCO2,i,0.1%,-0.18
Cc1cc(C)c2c(c1)OC(O)(C(F)F)CC2=O (stereo unspecified),i,5.5%,-0.03

# Next section.
SMILES,MT1-MMP reporter,Hsc70 ATP site,WNV NS2B-NS3 inh
CCOC(=O)C1CCCN(Cc2ccccc2F)C1 (stereo unspecified),i,-1.3%,0.43
c1coc(CNC2C3CC4CC(C3)CC2C4)c1 (stereo unspecified),i,3.0%,.
CCCn1cnc2cc(NCc3ccccn3)ccc21,i,-4.8%,-0.77
Cc1nnc(NC(=O)C2CCCN(c3ncccn3)C2)s1 (stereo unspecified),i,5.3%,-0.54
CC(=O)c1ccc(NC(=O)CSc2nnc(Cn3c(=O)sc4ccccc43)n2C)cc1,i,1.3%,0.27
O=C(O)C1C2CCC(O2)C1C(=O)NCc1ccncc1 (stereo unspecified),i,-2.2%,2.4
Cc1ccc(Nc2nc3c([nH]2)c(=O)n(C)c(=O)n3C)cc1,i,-3.0%,.
CCC(C)NC(=O)C1CCC(=O)N(c2cc(OC)c(OC)c(OC)c2)C1c1ccc(OC)cc1 (stereo unspecified),i,5.5%,.
Clc1ccccc1CSc1nnc(-c2ccncc2)o1,i,0.5%,.
CC(NC(=O)c1ccco1)C1COc2ccccc2O1 (stereo unspecified),i,-8.3%,.
CCn1cc(C2N3CC4(C)CN2CC(C)(C3)C4=O)c2ccccc21 (stereo unspecified),i,2.0%,0.52
CSCCC(NC(C)=O)C(=O)Oc1ccc2c3c(c(=O)oc2c1)CCCC3 (stereo unspecified),i,2.9%,3.5
CSCSC1=C(C#N)C(c2ccccc2Cl)C(C(C)=O)=C(C)N1 (stereo unspecified),i,-5.0%,1.1
COc1ccc(NC(=O)CCNC(C)=O)cc1NS(=O)(=O)c1ccc(F)cc1,i,-3.1%,0.41
CC(=O)Nc1cccc(OCC(=O)Nc2ccc(F)cc2)c1,i,1.3%,-0.55
O=C(Cn1c(-c2cncs2)nc2ccccc21)NC1CCCC1,i,-0.1%,-0.28
Cc1cc(C)c(-c2cc(C(=O)Nc3c(C)n(C)n(-c4ccccc4)c3=O)[nH]n2)c(O)c1,i,-2.2%,-0.52
COc1ccc(NC(=O)CCN2CCCC(C)C2)cc1 (stereo unspecified),i,-4.1%,0.22
CCOC(=O)c1c(-c2ccco2)csc1NC(=O)CSc1nnc(N)s1,i,-7.3%,.
COc1cccc(C2C(C(C)=O)=C(O)C(=O)N2CCc2c[nH]c3ccccc23)c1 (stereo unspecified),i,6.6%,.
CC(=O)NCCC(=O)Nc1sc2c(c1-c1nc3ccccc3[nH]1)CCCC2,i,-2.2%,.
CC(C)[C@H](NS(=O)(=O)c1ccccc1)C(=O)OCC(=O)NC(=O)c1cccn1C,i,-1.3%,.
COc1ccc2[nH]cc(C(=O)CN3CCCC(C)C3)c2c1 (stereo unspecified),i,2.7%,1.9
Cc1ccc(-c2nnc(SCC(=O)OC(C)C)n2N)cc1,i,3.6%,.
O=C(/C=C1\NC2(CCCC2)Cc2ccccc21)N1CCOCC1,i,2.7%,-1.8
COc1cc(Cl)c(C)cc1NC(=O)CSc1nnc(-c2ccco2)n1CC(C)C,i,-7.4%,-0.85
CCN(c1cccc(C)c1)S(=O)(=O)c1cccc2nsnc12,i,-3.3%,1.1
CCOc1ccc2[nH]c(=O)c(CN(Cc3ccc(F)cc3)C(=O)N3CCCC3)cc2c1,i,2.0%,-1
CCS(=O)(=O)N1CCC(C(=O)N2CCc3ccccc3C2)CC1,i,4.8%,-1.6
Cn1c(=O)n(CCc2ccccc2)c(=O)c2c1nc1n2CCCN1Cc1ccccc1,i,-1.6%,-0.61
COCCNC(=O)CSc1nc2ccccc2c(=O)n1-c1cccc(OC)c1,i,-3.4%,2
CCCCCOC(=O)Cc1c(O)c2ccccc2n(C)c1=O,i,-8.4%,0.54
COc1ccc(Cl)cc1NC(=O)COc1cccc(-n2cnnn2)c1,i,3.5%,0.26
CCOC(=O)c1ccc(NC(=O)C2(c3ccc(OC)cc3)CCOCC2)cc1,i,0.3%,.
CS(=O)(=O)N(CC(=O)NCc1ccccc1Cl)Cc1ccccc1,i,-0.7%,.
O=C(CCCc1nc2ccccc2s1)Nc1nccs1,i,8.8%,0.01
CCOC(=O)c1nnn(CC(=O)N2N=C(c3ccc(Cl)cc3)CC2c2ccc(OC)cc2)c1C(=O)OCC (stereo unspecified),i,-0.8%,.
c1ccc2c(NC3CCCC3)nnc(NC3CCCC3)c2c1,i,-1.1%,0.37
CC(=O)CSc1nc2ccc(Nc3nc(N4CCOCC4)nc(N4CCOCC4)n3)cc2s1,i,3.7%,-0.36
COc1cc(CNc2ccc3c(c2)CCC3)cc(OC)c1O,i,-5.0%,-0.37
O=C(Cn1c(NCCO)nc2ccccc21)NCCc1ccccc1,i,4.7%,0.71

# An unsorted share of the library; overall some 0.77% were active at least once.
